High-throughput results from PubChem.
Vaccinia Venus: vaccinia inhibition (Venus reporter); AID 720580; Potency, µM (titrated, usually from 36.5 µM), for inactives: at the highest dose activity change, negative = inhibition, most hits filed as inhibitors; 330,000 tested, 0.46% active; Vaccinia virus Venus reporter expression, fluorescence; active means well fitted inhibition curve with a large enough effect; inconclusive means small, poorly fitted or top-dose-only effect; inactive means no such curve, though single readings can be large or run the other way; tested in A549 cells; further: nearly all actives have a fitted effect of over 30% in size; inactives centre near -10
VACV mCherry inh: inhibitors of vaccinia virus infection (mCherry reporter signal); Potency, µM (doses to about 36.5 µM), for inactives: at the top dose activity change, negative = inhibition, hits mostly inhibitors; AID 720579; 310,000 tested, 0.63% active; Vaccinia virus mCherry reporter infection, fluorescence; about a quarter of the inactives have no number; active = well fitted inhibition curve with a large enough effect; inconclusive = small, poorly fitted or top-dose-only effect; inactive = no such curve, though single readings can be large or run the other way; tested in A549 cells; further: nearly all actives have a fitted effect of over 35% in size; inactives centre near -10
* marks the source's active call; other numbers are inactive results; i = inactive; ? = inconclusive; · = not tested or not shown; [ ] = dose if it differs, or a comment. On the % scale 0 is the no-effect control and ±100 the full control effect; potency means the concentration at half of the fitted maximal effect.

Results follow in this order: Vaccinia Venus, VACV mCherry inh
Cc1ccc(Oc2ccc(/C=N/O)cn2)cc1
 : -17%, ?
O=C(Nc1ccc(S(=O)(=O)NCC2CCCO2)cc1)c1cnccn1 (stereo unspecified)
 : -6%, -15%
Cn1c(=O)n(CCOc2ccc(Cl)cc2Cl)c2ccccc21
 : 11%, 4%
CC[C@@H](C)[C@H](C(CC(=O)N1CCCC1[C@@H](OC)[C@H](C)C(=O)N[C@H](Cc1ccccc1)c1nccs1)OC)N(C)C(=O)[C@H](NC(=O)[C@@H](C(C)C)N(C)C)C(C)C (stereo partly specified)
 : ?, -19%
CCC(C)(NC=O)C(=O)Nc1c(C)cccc1C (stereo unspecified)
 : -19%, i
[N-]=[N+]=NC[C@H](c1ccccc1)N1CCN(Cc2ccccc2)CCC1=O
 : -5%, i
Cc1ccc(C)c(CN2CCC(CNC(=O)Nc3ccc(C)c(C)c3)CC2)c1
 : -2%, ?
Cc1cccc(NS(=O)(=O)c2cccc(C(=O)NCC(C)(C)N3CCOCC3)c2)c1
 : -18%, i
C=CCc1cccc2cc(C(=O)NC3=C(C#N)CCC3)c(=O)oc12
 : -5%, ·
CCOc1ccc(CCNC(=O)c2[nH]c3cc(OC)ccc3c2Sc2ccccc2)cc1OCC
 : -17%, -7%
O=C(CCN1C(=O)C2CCCCC2C1=O)Nc1ccc(F)c(F)c1F (stereo unspecified)
 : -12%, -14%
CSCc1ccc(C(=O)OCc2nc3ccccc3s2)o1
 : 9%, -10%
Cc1ccc(C2C(C#N)C(C#N)N3CCCN23)cc1 (stereo unspecified)
 : -25%, -7%
CCCC1=Nc2cc(C(=O)NCc3ccccc3)ccc2Sc2ccccc21
 : -19%[7.34 µM], -25%[7.34 µM]
O=c1c2ccccc2c(C=NCCCN2CCOCC2)c(O)n1Cc1ccccc1
 : -17%, -4%
O=C(NC1CCCC1)C(c1ccccc1)n1c(-c2cccc3ccccc23)nc2ccccc21 (stereo unspecified)
 : -24%, -27%
CCCCNC(=O)c1cccnc1SCC(=O)Nc1ccccc1OC
 : -3%, -7%
N#C/C(=C\c1cccc(OC(=O)c2cccs2)c1)C(N)=O
 : -18%, -18%
N#Cc1nc(COc2ccccc2)oc1N1CCCCC1
 : -2%, -10%
Fc1ccccc1-c1csc(-c2cccnc2)n1
 : -7%, i
CCC(=O)N1CCCC(C)(C(=O)NS(=O)(=O)c2cccs2)C1 (stereo unspecified)
 : -5%, 11%
CC(C)C(=O)OCc1cc(=O)n2nc(C3CCCCC3)sc2n1
 : 4%, 9%
O=C(N=Nc1c(O)[nH]c2ccccc12)c1cc(-c2ccc(F)cc2)n[nH]1
 : -8%, i
Cc1cccc(-c2nnc(SC(C)C(=O)Nc3ccccc3)n2C)c1 (stereo unspecified)
 : -13%, -14%
O=C(CN1CC[n+]2c(-c3cccs3)csc21)c1ccc(-c2ccccc2)cc1
 : -12%, i
CC(C)c1csc(CN2CCC(N3CCC(C(=O)N4CCOCC4)CC3)CC2)n1
 : -1%, i
O=S(=O)(c1cccs1)N1CN(C2CCCCC2)c2nc3ccccc3nc21
 : -6%, 36%[activator]
CC[N+](CC)(CC)CCCCCCCCCC[N+](CC)(CC)CC
 : -9%, -17%
CCN(CC)CCNC(=O)c1cn(C)c2ccc(S(=O)(=O)N(C)C3CCCCC3)cc2c1=O
 : 0%, -7%
O=C(c1cc(-c2ccccc2)on1)N(Cc1cccnc1)C(c1ccccn1)c1nc2ccccc2[nH]1 (stereo unspecified)
 : 0%, 17%
CCn1c(CNC(=O)c2ccco2)nnc1SCC(=O)c1ccc(OC)cc1
 : -16%, -13%
Cc1cccc(OCCn2c(=O)oc3ccc(C)cc32)c1
 : -15%, -15%
Cc1c(C(=O)N2CCOCC2)c(S(=O)(=O)Nc2ccccc2F)c(C)n1C
 : -4%, -19%
Cc1ccc(S(=O)(=O)NCc2ccccc2)cc1C(=O)NC1CCCCC1
 : -13%, i
COC(=O)c1ccccc1-c1ccc(/C=N/Nc2nc(N3CCCC3)nc(N3CCCC3)n2)o1
 : -29%, -19%
CC(=O)Nc1ccc(NC(=O)C(C)OC(=O)c2cccc(S(=O)(=O)N3CCCCC3)c2)cc1 (stereo unspecified)
 : -12%, i
Cc1sc(NC(=O)CSc2nc(N)cc(N)n2)c(C#N)c1C
 : -15%, -25%
O=C1NC(c2cccc(Cl)c2)Nc2ccccc21 (stereo unspecified)
 : -18%, -5%
O=C(c1cccs1)c1sccc1Cc1ccccc1
 : -11%, -13%
Cc1cc(C)cc(N(C)S(=O)(=O)c2nnc(NC(=O)COc3ccc(C)c(C)c3)s2)c1
 : 0%, -10%
Cc1ccc(S(=O)(=O)N/N=C\c2ccc(C)o2)cc1
 : -2%, ?
COc1ccccc1NC(=O)Cn1nnc(-c2ccccc2NC(=O)c2cnccn2)n1
 : -3%, i
CCC(=O)N1CCc2cc(Br)cc(S(=O)(=O)N3CCCC(C(=O)Nc4ccc(C(C)C)cc4)C3)c21 (stereo unspecified)
 : -5%, -8%
O=C(O)c1nccnc1C(=O)Nc1ccc(Oc2c(Cl)cccc2Cl)nc1
 : 1%, i
O=C(O)c1cc(S(=O)(=O)Nc2cccc(Oc3ccccc3)c2)ccc1Br
 : 0%, i
COc1ccc(/C=N/NC(=S)Nc2cc(C(F)(F)F)ccc2Cl)cc1
 : -20%, ?
CC(C)(C)NCc1ccc(OCc2cccs2)cc1
 : -16%, -22%
Cc1cc(C)n(CCN(C)c2nc3nonc3nc2N2CCCCC2)n1
 : -1%, -21%
COC(=O)C1CCCCN1Cc1ccc2c(c1)CN(Cc1cn[nH]c1-c1ccc(F)cc1)CCO2 (stereo unspecified)
 : ?, ?
COc1cccc(C(=O)NCCSc2ccc(C)cc2)c1
 : -13%, -11%
Cc1cc(C)n(CC(=O)N2CCCC(N3CCN(c4ccc(F)cc4)CC3)C2)n1 (stereo unspecified)
 : -16%, i
O=C(CSCc1cc(=O)n2nc(C3CC3)sc2n1)Nc1ccc(F)cc1
 : -2%[7.34 µM], -9%[7.34 µM]
COc1cccc(/C(O)=C/c2nc3ccc(C(=O)NCCc4cccc(C)c4)cc3[nH]c2=O)c1
 : -19%, -22%
CCCN1C(=O)C(NS(=O)(=O)c2ccc(N)cc2)(C(F)(F)F)C(C(=O)OC)=C1C (stereo unspecified)
 : -7%, ·
O=C1Nc2ccccc2Oc2ccccc21
 : -17%, i
O=C(C[n+]1ccsc1)c1ccccc1
 : -3%, -4%
CC(C(=O)NCCS(=O)(=O)c1ccc(Cl)cc1)S(=O)(=O)c1ccc(Cl)cc1 (stereo unspecified)
 : -19%, -19%
Cc1ccccc1NC(=O)C1CCCN(S(=O)(=O)c2ccc3c(c2)C(C)(C)C(=O)N3C)C1 (stereo unspecified)
 : -7%, 3%
CCCCn1c(N)c(N(Cc2ccccc2OC)C(=O)c2ccc([N+](=O)[O-])s2)c(=O)[nH]c1=O
 : ?, ?
CCC1CCc2sc(C(=O)N3CCN(c4ccccn4)CC3)cc2C1 (stereo unspecified)
 : -5%, -13%

Additional results.
Results follow in this order: Vaccinia Venus, VACV mCherry inh
COC(=O)c1cc2c(C)cc3ccc(C)cn3c-2c1C(=O)OC
 : -7%, ·
C#CCN1C(=O)S/C(=C/C=C/c2ccc(N(C)C)cc2)C1=O
 : 308%[activator], 28%
O=C(Nc1cccc(Cl)c1)c1cncn1-c1ccc(F)cc1
 : -13%, -23%
CCC(C)[C@H]1CN=C(N)N1CC1CCCCC1 (stereo partly specified)
 : -12%, i
CC(C)(C)c1ccc(-c2nnc(SCCC#N)n2C2CCCC2)cc1
 : ?, -49%
COc1cccc2cc(C(=O)N3CCN(c4ccccc4F)CC3)c(=O)oc12
 : -12%, i
Cc1cc(C)cc(NC(=O)N2CCN3CCCCC3C2)c1 (stereo unspecified)
 : 3%, -12%
CC(=O)c1ccc(-c2nc3c4ccccc4ccn3c2C(C)=O)o1
 : -8%, -9%
COC(=O)c1cc(Br)cn1S(=O)(=O)c1ccccc1
 : -7%, -25%
CCOc1ccc(C(C)NC(=O)CCC(=O)O)cc1 (stereo unspecified)
 : -11%, ·
Cn1c(Cc2cccs2)nnc1SCC(=O)N1CCc2ccccc21
 : -7%, 0%
CCOc1ccc(C2CC(=O)NC(NC(=O)c3ccc(C)cc3)=N2)cc1 (stereo unspecified)
 : -10%, -2%
CC(C)CCOc1ccc(C(=O)NCC(c2cccs2)N2CCOCC2)cc1 (stereo unspecified)
 : -17%, i
COc1ccccc1OCCn1c(COc2cc(C)ccc2C)nc2ccccc21
 : -16%, -19%
CCCS(=O)(=O)NC(=O)C1(C)CCN(C(=O)c2cc(C(C)(C)C)nn2C)C1 (stereo unspecified)
 : -3%, 5%
Cc1cc(NS(=O)(=O)c2ccc(C3CCCCC3)cc2)no1
 : -11%, -3%
O=C(O)c1cccc(S(=O)(=O)N(Cc2ccccc2)c2cccc(C(F)(F)F)c2)c1
 : -4%, -9%
COc1cc2[nH]c(=O)c(C(=O)NCc3ccc(C)cc3)c(O)c2cc1OC
 : -4%, -13%
CCOc1ccc(Br)cc1S(=O)(=O)Nc1cccc(S(=O)(=O)N(C)C)c1
 : -6%, -7%
CC(C)(C)NS(=O)(=O)c1ccc(CCC(=O)Nc2ccc3c(c2)OCO3)cc1
 : -11%, ?
CCCCN(CC)CCCNC(=O)c1cc2c(=O)n(CC)c3ccccc3c2s1
 : ?, -10%
O=C(CSc1nc(=O)[nH]c2c1CCCC2)Nc1ccc(Cl)c(Cl)c1
 : -9%[7.34 µM], -11%[7.34 µM]
Cc1ccc(C(=O)OCC(=O)NCC2CCCO2)c(C)c1 (stereo unspecified)
 : 1%, -14%
COc1ccccc1NC(=O)CCCc1c[nH]c2ccccc12
 : -18%, -27%
O=C(NCc1ccco1)c1cccc(-c2cncc3nccn23)c1
 : 2%, 5%
O=C(CSc1nnc(-c2ccccc2)o1)NC1CCS(=O)(=O)C1 (stereo unspecified)
 : 7%, -8%
COc1ccc(-n2cc(CNCC3CC(=O)N(C4CC4)C3)c(-c3ccccc3Cl)n2)cc1 (stereo unspecified)
 : -14%, -13%
CCCn1cc(S(=O)(=O)c2ccc(C)cc2)c(=O)c2cc(OC)c(OC)cc21
 : -13%, -15%
O=C1NCCc2c1[nH]c1c(Cl)ccc(Cl)c21
 : -24%, -16%
COc1ccc(C)cc1NC(=O)CCNS(=O)(=O)c1ccc2c(c1)CC(C)N2C(C)=O (stereo unspecified)
 : 1%[7.34 µM], -15%[7.34 µM]
CC1CCCCN1C(=O)Cc1ccc(Cl)cc1 (stereo unspecified)
 : -7%, -12%
CN(C)C(CNC(=O)C1CCN(S(=O)(=O)c2ccccc2)CC1)c1ccccc1 (stereo unspecified)
 : -2%, -19%
CSCC[C@H]1COC[C@@H](Cc2ccccc2)N1c1ccccc1
 : -6%, -2%
Cc1cc(C)cc(NC(=O)c2cc(S(=O)(=O)N3CCCCC3)c[nH]2)c1
 : -4%, 0%
O=C(N/N=C/c1ccc(O)cc1)c1cccc(N/N=C/c2ccc(O)cc2)c1
 : -7%, -22%
COc1cccc(OCCNc2cc(Cl)ccc2[N+](=O)[O-])c1
 : 4%, ?
O=C(C1CCN(S(=O)(=O)c2ccc(Cl)cc2)CC1)N1CCCC1
 : -12%, i
CCOc1cc(S(=O)(=O)N2CC=C(c3ccc(F)cc3)CC2)c(OCC)cc1-n1cnnn1
 : -20%, -23%
N#Cc1cc2[nH]c3ccccc3c2[n+](-c2ccc([N+](=O)[O-])cc2)c1N
 : -4%, -20%
C[C@H]1CN([C@@H](C)CO)C(=O)CCCn2nncc2CO[C@@H]1CN(C)C(=O)Oc1ccccc1
 : 1%, -13%
O=C(C(=O)N1CCN(Cc2ccccc2)CC1)c1c[nH]c2ccccc12
 : -1%, i
CCOc1cc(Br)c(C2C(C(=O)OC)=C(C)NC3=C2C(=O)c2ccccc23)cc1OCC (stereo unspecified)
 : -19%, -27%
COc1ccccc1-c1c(C(F)(F)F)oc2cc(OS(C)(=O)=O)ccc2c1=O
 : -16%, -16%
Cc1cccc(C(C(N)=O)c2ncc(C(F)(F)F)cc2Cl)c1 (stereo unspecified)
 : -8%, i
C[C@@H]1CN([C@H](C)CO)S(=O)(=O)c2ccc(Br)cc2O[C@@H]1CN(C)C(=O)NC1CCCC1
 : -4%, -15%

Structural class: the compounds so far containing a furan ring, fused or not
Results follow in this order: Vaccinia Venus, VACV mCherry inh
CSCc1ccc(C(=O)OCc2nc3ccccc3s2)o1
 : 9%, -10%
CCn1c(CNC(=O)c2ccco2)nnc1SCC(=O)c1ccc(OC)cc1
 : -16%, -13%
COC(=O)c1ccccc1-c1ccc(/C=N/Nc2nc(N3CCCC3)nc(N3CCCC3)n2)o1
 : -29%, -19%
Cc1ccc(S(=O)(=O)N/N=C\c2ccc(C)o2)cc1
 : -2%, ?
CC(=O)c1ccc(-c2nc3c4ccccc4ccn3c2C(C)=O)o1
 : -8%, -9%
O=C(NCc1ccco1)c1cccc(-c2cncc3nccn23)c1
 : 2%, 5%

Entries of single compounds, looked up by structure.
Cc1cc(NS(=O)(=O)c2ccc(C3CCCCC3)cc2)no1 in the list: Vaccinia Venus: -11%; VACV mCherry inh: -3%
O=C(NC1CCCC1)C(c1ccccc1)n1c(-c2cccc3ccccc23)nc2ccccc21 (stereo unspecified) in the list: Vaccinia Venus: -24%; VACV mCherry inh: -27%
